Screens as filed in PubChem.
TNAP activation fold = human TNAP enzyme activators, primary screen, biochemical, luminescent, no phosphate acceptor, uHTS (AID 1001). purified TNAP, luminescent activation assay, no phosphate acceptor; higher activation fold means a stronger effect. 200,000 compounds, 0.03% hits. activation fold at 20 µM, or EC50 in µM where a hit was titrated; in the data active = activation fold from about 3, or a potency from the dose series; inactive = the rest, 99 in 100 with activation fold below about 1.6; note: many of its hits are not listed in these tables
XIAP displacement = small molecules displacing peptide from XIAP – biochemical, IAP family, fluorescence polarization (AID 1018) | XIAP BIR domain, fluorescence polarization peptide displacement; higher % means a stronger effect | displacement, % at 20 µM; hits with a dose series show IC50 in µM | 200,000 compounds, 0.007% hits; in the data active = displacement above about 50%; note: a part of the inactive calls stands beside numbers as strong as those of hits
RSV CPE inhibition = RSV antiviral activity via CPE protection, HEp-2 cells, primary 10 µM value included (AID 2391); HEp-2 cells, RSV-induced CPE inhibition; higher % means a stronger effect; one-dose CPE inhibition, % at 10 µM; IC50 in µM for titrated hits; 310,000 compounds, 0.13% hits; in the data active = a potency from the dose series; inconclusive = CPE inhibition mostly from about 23% at the one dose, without a potency; inactive = the rest, 99 in 100 with CPE inhibition below about 21%; note: strong numbers were not always called active
WT yeast gro inh = growth inhibition of WT yeast, mitochondrial fusion screen; mitochondrial fusion phenotypic screen, WT strain; inhibition, % at 10 µM; 190,000 compounds, 2.1% hits; AID 1362; in the data active = inhibition above about 58%; tested in S. cerevisiae
PhoP inhibition = PhoP-dependent GFP reporter repression – Salmonella Typhimurium, primary screen (AID 1863); S. Typhimurium PhoP-regulated promoter GFP reporter, 4 h; higher % means a stronger effect; 300,000 compounds, 0.16% hits; inhibition, % at 50 µM, or IC50 in µM where a hit was titrated;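 active = inhibition over 29.93%, a cutoff 3 SD above the screen mean, later confirmed by dose response; inconclusive = inhibition over 29.93% but no dose response follow-up; inactive = inhibition at most 29.93% or unconfirmed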;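 note: 0% = low Mg2+ inducing control and 100% = high Mg2+ repressing control; strong numbers were not always called active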
Myeloid diff 2 = promotes myeloid progenitor differentiation; 360,000 compounds, 1% hits; calls only at 10 µM; AID 624256; ER-HoxA9 myeloid progenitors, lysozyme-GFP differentiation, flow cytometry;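 active = normalized GFP-positive differentiation at or above the plate's own cutoff, the solvent-only control mean plus 3 SD; inconclusive = no clear call, values can overlap the other calls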;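 note: cells exposed to compound for four days before flow analysis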
Siah-1 displacement = blockers of Siah-1 interaction with plectin peptide – biochemical, fluorescence polarization, rhodamine-plectin, uHTS, primary screen (AID 1817) | Siah-1 / rhodamine-plectin peptide fluorescence polarization; higher % means a stronger effect | one-dose displacement, % at 20 µM; IC50 in µM for titrated hits | 290,000 compounds, 0.02% hits;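 active = displacement of at least 50% at 20 µM, with a fluorescence ratio check between 0.3 and a set limit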;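 note: plate controls were Siah plus tracer with DMSO for no effect and tracer alone without Siah for full effect; strong numbers were not always called active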
WT yeast gro inh mutant strain = further read-out of WT yeast gro inh, marked with its call; inhibition, %; mitochondrial fusion phenotypic screen, mutant strain inhibition
Myeloid diff 2 GFP+ MAC1+ % = further read-out of Myeloid diff 2, marked with its call; GFP+ MAC1+ double positive, %; measured here: differentiation confirmed by MAC1 staining
Active calls of the source: *; i = inactive; ? = inconclusive; . = no result given; + = active, no number.

SMILES | TNAP activation fold | XIAP displacement | RSV CPE inhibition | WT yeast gro inh | WT yeast gro inh mutant strain | PhoP inhibition | Myeloid diff 2 | Myeloid diff 2 GFP+ MAC1+ % | Siah-1 displacement
CCOc1ccccc1N1CN(CC)CNC1=S | 1 | -3.6% | -1.6% | -5.2 | 25.9 | -4.4% | . | . | 5.7%
CCOC(=O)N1CCN(C(=O)Cc2ccsc2)CC1 | 1.1 | -6.1% | 2.1% | 9.0 | -1.2 | -0.1% | i | 1.0 | -2.5%
O=C(c1ccc(Cl)cc1)c1cnc(-c2ccccc2)s1 | 1.1 | -1.4% | . | -4.2 | -6.8 | -6.5% | i | 0.9 | 3.1%
CCCOc1ccc(-c2nc(OC)c3ccccc3n2)cc1 | 1.1 | 2.0% | ? | 53.1 | 34.3 | -1.1% | i | 1.1 | 1.8%
Cc1ccc(-c2nc3ccccc3[nH]2)cc1NC(=O)c1ccc2c(c1)OCO2 | 1.2 | -4.6% | 17.8% | 7.2 | -17.4 | 4.5% | i | 2.4 | 1.3%
O=C(Nc1cc(C(F)(F)F)cc(C(F)(F)F)c1)c1ccc(Cn2cc(C(F)(F)F)ccc2=O)cc1 | 1 | -4.4% | 2.4% | 22.3 | 7.7 | 16.6% | i | 1.1 | 1.7%
Cc1ccc(C(=O)NCC(=O)NCC(=O)OCC(=O)c2ccc([N+](=O)[O-])cc2)cc1 | 1 | -23.0% | 0.3% | 3.0 | 3.5 | 19.8% | i | 0.7 | 4.7%
CC(=O)Oc1c(S(=O)(=O)c2ccc(C)cc2)c(C)nn1C(C)(C)C | 1.1 | -8.8% | 1.6% | -13.9 | 5.5 | -4.8% | i | 1.1 | 3.5%
O=C(Nc1cc(Sc2ccccn2)cc([N+](=O)[O-])c1)c1ccc(Cl)cc1 | 0.9 | -3.5% | 17.3% | 31.8 | 14.4 | 22.9% | i | 0.5 | 5.8%
Cc1nnnn1-c1cccc(C(=O)O)c1 | 1.1 | -2.6% | 1.5% | -13.1 | -51.5 | -5.4% | i | 3.2 | 0.7%
COc1ccc(S(=O)(=O)N2CCN(CC(=O)Nc3cc(C(F)(F)F)ccc3Cl)CC2)cc1 | 1.1 | -5.8% | 1.1% | 18.3 | 8.8 | 3.3% | i | 0.4 | 4.0%
N#CC1=C(N)OC2=C(C(=O)CC(c3ccco3)C2)C1c1ccc(OCc2c(F)cccc2Cl)cc1 (stereo not given) | 1.1 | -3.6% | 14.2% | 2.0 | 24.5 | 5.9% | . | . | 0.9%
Cc1c(OCC(=O)OC(C)C)ccc2c3c(c(=O)oc12)CCC3 | 1.1 | -0.9% | 1.1% | 37.5 | 12.8 | -7.7% | i | 0.6 | -1.3%
CCOC(=O)CN1CC23C=CC(O2)C(C(=O)NC2CCCCC2)C3C1=O (stereo not given) | 1.3 | -5.4% | 1.1% | -0.9 | 0.3 | -5.2% | i | 1.3 | 1.7%
COc1ccc(C(=O)OC2CCN(c3ncc(C(F)(F)F)cc3Cl)CC2)cc1 | 1.1 | -7.4% | 16.6% | 3.5 | 0.2 | -4.9% | i | 0.3 | -2.7%
COC(=O)c1ccc(-n2cncn2)c(F)c1 | 1.1 | -3.7% | 0.9% | 1.5 | -9.4 | 0.5% | i | 8.5 | 0.9%
CC(=O)Nc1ccc(-c2cn3cccnc3n2)cc1 | 1.1 | -1.2% | 1.6% | -18.4 | -7.0 | 0.3% | i | 4.9 | 5.8%
Cc1nc2ncnn2c(C)c1CCC(=O)NC(C)c1ccc2c(c1)OCCO2 (stereo not given) | 1 | -4.2% | 0.9% | -2.8 | -1.9 | 1.0% | i | 1.1 | 1.7%
O=C(O)CSc1nnc(Cn2c(=O)sc3ccccc32)n1-c1cccc(Cl)c1 | 1.1 | -16.8% | 0.4% | -17.0 | -35.6 | -3.2% | i | 1.5 | -0.3%
CCC(=O)NC(=S)Nc1ccc(S(=O)(=O)NC(C)=O)cc1 | 1 | -0.2% | 0.9% | 8.6 | 9.0 | 3.4% | i | 1.0 | 21.1%

No new results follow: four of the compounds above.
SMILES | TNAP activation fold | XIAP displacement | RSV CPE inhibition | WT yeast gro inh | WT yeast gro inh mutant strain | PhoP inhibition | Myeloid diff 2 | Myeloid diff 2 GFP+ MAC1+ % | Siah-1 displacement
CC(=O)Nc1ccc(-c2cn3cccnc3n2)cc1 | 1.1 | -1.2% | 1.6% | -18.4 | -7.0 | 0.3% | i | 4.9 | 5.8%
Cc1nc2ncnn2c(C)c1CCC(=O)NC(C)c1ccc2c(c1)OCCO2 (stereo not given) | 1 | -4.2% | 0.9% | -2.8 | -1.9 | 1.0% | i | 1.1 | 1.7%
O=C(O)CSc1nnc(Cn2c(=O)sc3ccccc32)n1-c1cccc(Cl)c1 | 1.1 | -16.8% | 0.4% | -17.0 | -35.6 | -3.2% | i | 1.5 | -0.3%
CCC(=O)NC(=S)Nc1ccc(S(=O)(=O)NC(C)=O)cc1 | 1 | -0.2% | 0.9% | 8.6 | 9.0 | 3.4% | i | 1.0 | 21.1%

Next entries.
SMILES | TNAP activation fold | XIAP displacement | RSV CPE inhibition | WT yeast gro inh | WT yeast gro inh mutant strain | PhoP inhibition | Myeloid diff 2 | Myeloid diff 2 GFP+ MAC1+ % | Siah-1 displacement
C=CCn1c(-c2ccc(Cl)cc2)ccc(C#N)c1=O | 1.1 | -3.7% | 47.1% | 14.3 | -28.2 | 12.5% | i | 2.1 | -0.9%
Cc1c(Cl)cccc1N1C(=O)C(N2C(=O)c3cccc([N+](=O)[O-])c3C2=O)C1c1cccs1 (stereo not given) | 1.1 | -9.2% | 1.6% | -12.1 | 0.5 | -5.4% | i | 0.2 | 3.2%
CCOC(=O)NC(CC(=O)O)c1ccc(OCC)cc1 (stereo not given) | 1.1 | -0.1% | . | -16.3 | -19.2 | -7.2% | i | 1.2 | 3.0%
Cc1ccc(-c2cc(C(=O)N3CCN(c4ccc(F)cc4)CC3)c3ccccc3n2)o1 | 1 | -4.9% | 12.6% | 54.3 | 24.9 | 18.8% | i | 1.0 | -6.4%
COc1cc(-c2cc(-c3ccccc3)nc(SCC(=O)Nc3nccs3)c2C#N)cc(OC)c1OC | 0.9 | -10.7% | 0.2% | -3.2 | -9.4 | -2.9% | + | 2.4* | -2.1%
C1CCN(c2nc3nonc3nc2N2CCCC2)C1 | 1.1 | -7.4% | 3.2% | -5.2 | 5.2 | 1.8% | i | 0.6 | 0.2%
CCOC(=O)c1[nH]c(C)c(C(=O)N2CCc3ccccc32)c1C | 1.1 | -3.4% | 6.0% | -11.4 | -1.9 | 3.7% | ? | . | 4.8%
Cc1ccc2c(c1)N(CCC(=O)NCCCOC(C)C)C(=O)C(C)O2 (stereo not given) | 1.1 | -3.2% | 0.8% | 7.7 | 4.5 | 0.1% | i | 3.0 | 0.9%
CCCn1nc2cc(C(=O)NCc3ccc(C)cc3)ccc2c1OCC | 1.1 | -4.7% | 5.1% | 2.4 | 4.5 | 6.6% | i | 0.7 | 1.5%
O=S(=O)(c1cc(-c2nc3ccccc3s2)ccc1Cl)N1CCOCC1 | 1.1 | -3.7% | . | 8.5 | 9.1 | 22.3% | . | . | 8.6%
COc1cc2[nH]c(=O)n(CCC(=O)N3CCC(N4CCCCC4)CC3)c(=O)c2cc1OC | 1.1 | -5.6% | 0.7% | 71.1* | 34.3* | -10.4% | i | 1.0 | 1.9%
C=CCn1cnc2scc(-c3ccccc3)c2c1=O | 1.1 | -4.8% | 2.0% | 2.9 | 0.0 | -7.1% | i | 0.6 | 1.2%
CC(=O)N1CC(=O)N(OCc2ccccc2)C1c1ccc(Cl)cc1Cl (stereo not given) | 1.1 | -4.9% | 1.1% | 3.8 | 0.2 | -4.3% | i | 1.5 | 1.2%
CCCCOc1ncnc2c1[nH]c1ccc(OC)cc12 | 1.1 | -0.2% | 2.3% | 35.1 | 16.7 | -6.3% | . | . | -6.1%
COCCN1C(=O)C(O)=C(C(=O)c2cccs2)C1c1ccccc1 (stereo not given) | 0.9 | -7.3% | 0.7% | -26.8 | -14.2 | -11.3% | i | 1.8 | 3.0%
NNC(=O)c1cn2ccccc2n1 | 1 | -2.3% | -1.1% | 12.2 | 8.6 | -3.2% | i | 1.9 | -3.9%
O=C(CNS(=O)(=O)c1ccc(Br)cc1)N1CCOCC1 | 1.1 | -1.3% | 1.4% | 11.9 | 76.0 | -4.9% | i | 0.7 | 1.3%
Cc1ccc(/C=N\NC(=O)C2COc3cc4ccccc4cc3O2)o1 (stereo not given) | 1 | -4.7% | 6.0% | 6.8 | 8.8 | -22.6% | i | 1.2 | -3.3%
COC(=O)c1c(C)n(-c2ccccc2)c2ccc(O)cc12 | 1 | 3.2% | 0.8% | -19.9 | -20.3 | -1.6% | i | 1.1 | -5.7%
COc1ccc(NC(=O)CN2C(=O)c3cccc4cccc2c34)c(OC)c1 | 1.1 | -4.5% | . | 11.7 | -0.1 | 18.2% | i | 1.2 | 3.9%
CCOc1ccccc1NC(=O)CCn1c(=O)oc2ccccc21 | 1 | -2.8% | 0.9% | 1.2 | -17.4 | 4.1% | i | 0.5 | 3.1%
O=C(c1ccc(Br)cc1)c1cc(-c2ccccn2)c(N2CCOCC2)s1 | 1.2 | 0.4% | -1.2% | 4.5 | -6.6 | -5.7% | i | 0.7 | 4.3%
CC(CC(=O)NC1CCCC1)c1ccccc1 (stereo not given) | 1 | -3.8% | 1.1% | 7.9 | 5.8 | 8.2% | i | 1.0 | 2.2%
COc1cc(/C=N/NC(=O)c2cncc(Br)c2)ccc1OC(=O)c1ccc2c(c1)OCO2 | 1 | -4.5% | . | 2.4 | 9.1 | 0.2% | . | . | -3.0%
N#Cc1cc2c(nc1SC1CCCCC1O)CCCC2 (stereo not given) | 0.9 | -8.0% | 4.8% | 4.6 | -4.6 | 11.2% | i | 0.7 | -0.3%
COc1ccc(-c2cccc(C(=O)Nc3ccc(OC)c(OC)c3)c2)cc1 | 1.1 | -4.5% | 1.0% | 20.5 | -1.8 | 0.8% | i | 1.2 | 3.3%
Cc1ccc2nc(CSc3nc(C)cc(C)c3C#N)[nH]c2c1 | 1.2 | -5.1% | 17.7% | 45.0 | 42.2 | -11.9% | i | 0.8 | -5.5%
O=C1c2ccccc2CCCC12N=NCC2c1cccc2ccccc12 (stereo not given) | 1.1 | -3.4% | 18.6% | -14.3 | -5.4 | 6.8% | i | 0.7 | -0.2%
O=C(Oc1c(Cl)cc(Cl)c2ccccc12)N1CCCC1 | 1.1 | -7.2% | 4.6% | 17.7 | 3.5 | 1.6% | i | 3.2 | -0.3%
Cc1ccccc1NC(=O)N1C2CCC1CC(O)(c1cccnc1)C2 (stereo not given) | 1.1 | -2.1% | -0.1% | 17.9 | -4.2 | 6.4% | i | 1.2 | 2.9%
N/C(Cc1ccc([N+](=O)[O-])cc1)=N\OC(=O)COc1cccc2ccccc12 | 1.1 | 0.9% | 2.1% | 10.4 | 2.3 | -10.2% | i | 2.4 | 0.5%
O=c1c(-c2nc3ccccc3s2)cccn1Cc1ccc(Cl)cc1 | 1.1 | -1.0% | -0.1% | 4.9 | 0.3 | 12.9% | i | 0.9 | 1.3%
CSc1ccc(CCNC(=O)CSc2ccsc2[N+](=O)[O-])cc1 | 1.1 | -4.1% | 1.0% | -2.0 | -12.8 | 14.8% | i | 0.5 | 4.2%
COC(=O)C1=C(C(=O)OC)C(c2cc(Cl)ccc2O)c2sc(=O)[nH]c2S1 (stereo not given) | 1 | -3.2% | 1.0% | 0.5 | 0.0 | -6.0% | i | 3.9 | -2.3%

The list is partial; rates above refer to the full screens.
